CBX7 inh = blocks human CBX7 binding to H3K27me3 peptide; normalised signal (fraction of DMSO) (test concentration not listed); hit rate 1.1% among 66,000; AID 1224903; AlphaScreen His6-CBX7 / biotin-H3K27me3 peptide binding; active compounds read low; in the data active = normalised signal below about 0.5;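 note: 100 nL library stock added to about 20 µL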
Target sequence (O95931 whole entry, looked up): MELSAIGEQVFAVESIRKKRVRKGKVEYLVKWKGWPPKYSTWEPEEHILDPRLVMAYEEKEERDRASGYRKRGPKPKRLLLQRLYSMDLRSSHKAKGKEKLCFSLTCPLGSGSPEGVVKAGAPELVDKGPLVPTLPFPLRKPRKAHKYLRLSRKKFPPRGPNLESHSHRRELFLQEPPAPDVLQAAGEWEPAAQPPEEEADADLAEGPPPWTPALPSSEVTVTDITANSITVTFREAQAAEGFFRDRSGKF
CBX7 inh z-score = second read-out of CBX7 inh, no call of its own (marks repeat the call); z-score; measured here: z-score of CBX7 signal; some inactives read as strong as hits; reference of the scale not given here;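 same signal on another scale; lower means less binding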
* marks the source's active call; other numbers are inactive results; & = joins results of further samples. The list is partial, so the mix of outcomes need not match the whole.

SMILES | CBX7 inh | CBX7 inh z-score
O=C(NCc1nnc(SC/C=C/c2ccccc2)o1)c1ccccc1F | 1.1 | 1
Cc1ccc2oc(-c3ccc(N)cc3)nc2c1 | 0.84 | -2.5
Cc1nc2cc(-c3ccc(Cl)cc3)nn2c(C)c1CCC(=O)NC(C)c1ccc2c(c1)OCCO2 (configuration not stated) | 1 | -0.057
Cc1ccc(NC(=O)c2ccc3c(c2)N(Cc2ccc(F)cc2)C(=O)CS3)c(C)c1 | 1.1 | 0.94
COc1ccc2c(c1)c(=O)c(S(=O)(=O)c1ccccc1)cn2Cc1cccc(Cl)c1 | 0.88 | -2.2
CCOc1ccc(CNC(=O)c2cc(=O)[nH]c3ccc(S(=O)(=O)N4CCCCC4C)cc23)cc1 (configuration not stated) | 1.1 | 0.73
CCc1ccc(NC(=O)c2cc(C)nn2-c2ccccc2)cc1 | 1 | 0.31
O=C(Cc1c(C(=O)O)[nH]c2ccc(Cl)cc12)Nc1cccc(Cl)c1 | 0.92 | -0.6
Cc1ccc2c(c1)N(CC(=O)NC1CCCCC1C)C(=O)CO2 (configuration not stated) | 1.1 | 2.5
CCCCN(CCCNC(=O)CC1Oc2ccccc2NC1=O)Cc1ccccc1 (configuration not stated) | 1 | 1.3

Copied from the list:
Reading of COc1ccc2c(c1)c(=O)c(S(=O)(=O)c1ccccc1)cn2Cc1cccc(Cl)c1 under CBX7 inh z-score: -2.2
Reading of Cc1ccc2oc(-c3ccc(N)cc3)nc2c1 under CBX7 inh: 0.84

(cont.)
SMILES | CBX7 inh | CBX7 inh z-score
O=C1CC(c2ccccc2C(F)(F)F)c2ccccc2N1 (configuration not stated) | 1 | 0.51
CCOc1ccccc1CN1CCC(CNC(=O)CN2C(=O)COc3ccc(C(C)(C)C)cc32)CC1 | 0.95 | -0.88
COCCNC(=O)C1CC(=O)N(CCc2ccccc2)C1 (configuration not stated) | 1.1 | 1.6
CCCCC(=O)Nc1ccc(-c2nc3ccc(C)cc3s2)cc1 | 0.86 | -1.8
Cn1c(SCC(=O)N2CCC(Cc3ccccc3)CC2)nnc1-c1c[nH]c2ccccc12 | 0.59 | -3.9
COCCn1c(SCC(=O)Nc2ccccc2F)nnc1-c1c[nH]c2ccccc12 | 1 | 0.31
CCOc1ccccc1NC(=O)Cn1nc(Cc2ccncc2)c2ccccc2c1=O | 0.92 | -1.5
CC(C)(C)c1ccc(C(=O)Nc2ccc(-c3nc4ncccc4o3)cc2)cc1 | 0.87 | -1.4
COc1ccc2c(c1)c(C(=O)CNc1nccs1)c(C)n2C | 1.2 | 1.8
COc1ccc(-c2noc(CCC(=O)NCc3ccc(F)cc3Cl)n2)cc1 | 0.91 | -1.3
COc1ccc(CN(C(=O)COc2ccc(Br)cc2)C2CCS(=O)(=O)C2)cc1 (configuration not stated) | 1 | 0.46
CCCCOc1ccc(/C=C/c2nc3ccccc3c(=O)n2-c2ccc(F)c(Cl)c2)cc1 | 1 | 0.25
COc1ccc(-c2nc(SCC(=O)Nc3ccc(F)cc3)c(-c3ccc(OC)cc3)[nH]2)cc1 | 1 | 0.14
CCn1c(=O)c(=O)n(CC)c2cc(S(=O)(=O)Nc3cc(C)ccc3C)ccc21 | 1 | 1.1
CCc1ccc(NC(=O)N(CCCOC(C)C)C2CCN(C(C)=O)CC2)cc1 | 1.1 | 0.75
Cc1ccc(NC(=O)Cc2c(C(=O)O)[nH]c3ccccc23)c(Cl)c1 | 0.97 | -0.35
CCn1c(SCC(=O)Nc2nc3ccc(C)cc3s2)nnc1-c1c[nH]c2ccccc12 | 1 | 0.22
CCCCOc1ccc(C(O)(CCC)CCN2CCOCC2)cc1 (configuration not stated) | 1 | 0.0051
Cc1c(C(=O)NCc2ccccc2)oc2ccc(S(=O)(=O)N3CCC(C)CC3)cc12 | 1 | 0.0033
O=C(Nc1ccc(F)cc1F)N1CCN(C(c2ccccc2)c2ccccc2)CC1 | 1.2 | 2.1
O=c1[nH]c2ccc(NS(=O)(=O)c3ccc(Br)cc3)cc2[nH]1 | 1.1 | 2.7
COc1cc(NC(=O)Cn2c(SCc3ccccc3F)nc3ccncc32)cc(OC)c1 | 0.96 | -2
c1ccc(OCCn2c(COc3ccccc3)nc3ccccc32)cc1 | 0.79 | -3.8
COc1ccc(-c2nn(C)c3sc(C(=O)NCc4cccnc4)cc23)cc1OC | 1.1 | 1.7
COc1ccc(S(=O)(=O)NCCc2cc3ccc(C)c(C)c3[nH]c2=O)cc1 | 1 | 0.13
CCC1(C(O)(C#CCN(CCO)C(C)C)c2ccccc2)CCCC1 (configuration not stated) | 1.1 | 0.87
CCC(C)NC(=O)c1nn2c(C(F)(F)F)cc(-c3ccco3)nc2c1Br (configuration not stated) | 1.1 | 2.5
Cc1ccc2c(c1)c1c3n2CCN(c2nc(-c4ccc(F)cc4)cs2)C3CCC1 (configuration not stated) | 0.88 | -2.9
COc1ccc(OC)c(NC(=O)c2c(NCc3ccc(OC)c(OC)c3)sc3c2CCC(C)C3)c1 (configuration not stated) | 0.73 | -14
COc1cccc(CNC(=O)CN2C(=O)CSc3ccccc32)c1 | 1 | 0.48
COc1ccccc1C(=O)Nc1c(C(=O)c2ccc(Br)cc2)oc2ccccc12 | 1.4 | 1.7
COc1ccc(-n2nc3ccc(NC(=O)c4cccc(OCCC(C)C)c4)cc3n2)cc1 | 1.2 | 8.4
CN(CC(=O)Nc1cccnc1)S(=O)(=O)c1ccc2c(c1)n(C)c(=O)c(=O)n2C | 1.2 | 1.8
COc1ccc(C(=O)c2oc3ccccc3c2NC(=O)c2ccccc2Br)cc1 | 1.2 | 0.68
CCCCNC(=O)c1cc(Sc2ccc(C)cc2)nc2ccccc12 | 1.1 | 1.7
O=C(CSc1nnc(Cc2cc(=O)[nH]c(=O)[nH]2)n1-c1ccccc1)Nc1ccc2c(c1)OCCO2 | 1 | 0.88
O=C(Nc1ccc(Cc2ccncc2)cc1)C12CC3CC(CC(C3)C1)C2 | 0.96 | -0.65
O=C(CNC1CCCCC1)Nc1c2c(nc3c1CCC3)CCCC2 | 0.34* | -8.8*
CCN(CC)CCNC(=O)Cn1nc(Cc2cccnc2)c2ccccc2c1=O | 1.2 | 3.7
CC(=O)N1CCc2cc(S(=O)(=O)N3CCCCC3C)ccc21 (configuration not stated) | 1.1 | 0.88

Reprinted from the part before: 2 compounds; new compounds follow.
SMILES | CBX7 inh | CBX7 inh z-score
CCN(CC)CCNC(=O)Cn1nc(Cc2cccnc2)c2ccccc2c1=O | 1.2 | 3.7
CC(=O)N1CCc2cc(S(=O)(=O)N3CCCCC3C)ccc21 (configuration not stated) | 1.1 | 0.88
CCCOc1ccc(C2C(=O)N(C3CCCCC3)CC(=O)N2Cc2ccc(F)cc2)cc1OC (configuration not stated) | 0.96 | -0.51
O=C1CN(C(=O)CCCc2ccccc2)C(c2ccccc2)c2cc(F)ccc2N1 (configuration not stated) | 0.79 | -0.28
Cc1ccc(NC(=O)C2C3C=CC4(CNC(=O)C(c5ccc(C)cc5)N(Cc5ccccc5F)C(=O)C24)O3)cc1 (configuration not stated) | 0.84 | -3.4
Cc1nn(Cc2ccc(Cl)c(Cl)c2)c(C)c1NC(=O)c1cc(-c2cccs2)on1 | 0.97 | -0.4
Cc1cc(C)c2oc(-c3cccc(NC(=O)c4cccc(Br)c4)c3)nc2c1 | 1 | 0.42
CCNCC(=O)N1c2ccccc2CCc2ccc(NC(=O)OCC)cc21 | 0.93 | -0.8
CCOc1ccccc1NC(=O)C1CCCN(S(=O)(=O)c2cccs2)C1 (configuration not stated) | 1 | 1.5
CCOc1ccccc1CNC(=O)c1cc(=O)[nH]c2ccc(S(=O)(=O)N3CCCCC3CC)cc12 (configuration not stated) | 0.83 | -1.9
O=C(CSc1ncnc2sc(-c3ccccc3)cc12)N1CCOCC1 | 1.1 | 0.068
O=S(=O)(c1cnc[nH]1)N1CCc2ccccc2C1 | 1.2 | 0.48

Of the compounds above, these contain an aryl thioether with sulfur outside any ring:
SMILES | CBX7 inh | CBX7 inh z-score
O=C(NCc1nnc(SC/C=C/c2ccccc2)o1)c1ccccc1F | 1.1 | 1
Cn1c(SCC(=O)N2CCC(Cc3ccccc3)CC2)nnc1-c1c[nH]c2ccccc12 | 0.59 | -3.9
COCCn1c(SCC(=O)Nc2ccccc2F)nnc1-c1c[nH]c2ccccc12 | 1 | 0.31
COc1ccc(-c2nc(SCC(=O)Nc3ccc(F)cc3)c(-c3ccc(OC)cc3)[nH]2)cc1 | 1 | 0.14
CCn1c(SCC(=O)Nc2nc3ccc(C)cc3s2)nnc1-c1c[nH]c2ccccc12 | 1 | 0.22
COc1cc(NC(=O)Cn2c(SCc3ccccc3F)nc3ccncc32)cc(OC)c1 | 0.96 | -2
CCCCNC(=O)c1cc(Sc2ccc(C)cc2)nc2ccccc12 | 1.1 | 1.7
O=C(CSc1nnc(Cc2cc(=O)[nH]c(=O)[nH]2)n1-c1ccccc1)Nc1ccc2c(c1)OCCO2 | 1 | 0.88
O=C(CSc1ncnc2sc(-c3ccccc3)cc12)N1CCOCC1 | 1.1 | 0.068

(continued)
SMILES | CBX7 inh | CBX7 inh z-score
O=C(NC1CCCCCCC1)c1ccc(NC2=NC3CS(=O)(=O)CC3S2)cc1 (configuration not stated) | 0.94 | -1.1
CC(C)Cc1cc(C(=O)Nc2cccnc2)no1 | 1.2 | 0.87
Cc1ccc(-c2nc(C(=O)NCCN3CCCC3)c(C)o2)cc1 | 1 | 1.1
Cc1ccccc1Cn1c(CNC(=O)C(C)(C)C)nc2ccccc21 | 1.1 | 1.3
COc1ccc(NC(=O)Cn2cnc3sc(C)c(C)c3c2=O)c(OC)c1 | 1.3 | 3.3
CCCc1ccc(-c2nc(-c3cccnc3)no2)cc1 | 1 | 0.41
CCOC(=O)Cc1csc(NC(=O)COc2ccc(C)cc2)n1 | 1 | 0.32
Cc1ccc(-c2nc3ncccc3o2)cc1NC(=O)CSc1ccc(Cl)cc1 | 1.1 | 0.68
CCCc1cc(=O)n2[nH]cc(-c3cccc(Br)c3)c2n1 | 0.84 | -2.7
CCCc1ccc(OCC(=O)Nc2sc3c(c2C(=O)OCC)CCC(C)C3)cc1 (configuration not stated) | 1.2 | 3.6
Cc1nc2cc(-c3ccccc3)nn2c(C)c1CCC(=O)NCc1ccccc1 | 1 | 0.52
Cc1ccc(-c2nn(C)c(=O)c3ccccc23)cc1CNS(=O)(=O)c1ccc(Cl)cc1 | 0.8 | -2.1
Cc1ccnc(N2C(=O)c3ccccc3C2Nc2cccc(C)c2C)c1 (configuration not stated) | 1.2 | 2
COc1ccc(NC(=O)C(Cc2ccccc2)NS(=O)(=O)c2cccs2)cc1Cl (configuration not stated) | 1.1 | 0.97
CCc1nc(N2CCOCC2)c(C#N)c2c1COC(C)(C)C2 | 1.1&1 | 0.5&0.5
Cc1ccc(CSc2nc3ccncc3n2CC(=O)Nc2cc(C)cc(C)c2)cc1 | 0.84 | -2.3
CCOc1ccc2nc(N3CCC(C(=O)N4CCN(c5cccc(Cl)c5)CC4)CC3)sc2c1 | 1 | 0.23
COc1cc(Cl)c(C)cc1NC(=O)c1cc2c(-c3ccc(OC)c(OC)c3)nn(C)c2s1 | 1 | 0.84
COCCNC(=O)Cn1nc(-c2ccccc2)ccc1=O | 1.1 | 1.4
CCOC(=O)c1c(NC(=O)COc2ccc(F)cc2)sc2c1CCCCC2 | 1.1 | 2.6
Cc1cc(N2CCC(C(=O)N3CCOCC3)CC2)n2nc(C)c(-c3ccc(Cl)cc3)c2n1 | 1.1 | 2.3
CCCOc1cccc(-c2cc(C(=O)NCCN3CCOCC3)c3ccccc3n2)c1 | 0.91 | -0.12
CC(NC(=O)C(=O)NCCN1CCOCC1)C(c1cccs1)N1CCN(c2ccccc2)CC1 (configuration not stated) | 1.2 | 2.5
O=C(c1ccc(Cl)c(Cl)c1)N1CCN(c2ccc(N3CCOCC3)nn2)CC1 | 1.1 | 1.8
CN(C)S(=O)(=O)c1ccc(C(=O)Nc2c(C(N)=O)oc3ccccc23)cc1 | 1.1 | 0.84
COc1ccc(-c2nc(-c3ccc(NC(=O)c4ccncc4)cc3)no2)cc1OC | 1 | -0.048
CN(Cc1ccccc1)c1nc(-c2cccs2)cc(C(F)(F)F)n1 | 2.2 | 9.8
Cn1c(C(=O)N2CCCC(C(=O)O)C2)cc2sccc21 (configuration not stated) | 1 | 0.21
Cc1ccc(S(=O)(=O)c2nc(-c3cccs3)oc2SCC(=O)Nc2ccc(F)cc2)cc1 | 0.98 | -0.51
Cc1cc2nc(Cc3ccccc3C(F)(F)F)c(=O)[nH]c2cc1C | 1 | 0.28
COc1ccc(NC(=O)CSc2nccn2-c2cccc(C)c2)c(OC)c1 | 0.96 | -0.037
COc1ccc(-c2cc(C(=O)N3CCCCC3)no2)cc1 | 1.2 | 1.3
Cc1c(C)n(CC(O)CN2CCN(CCO)CC2)c2ccccc12 (configuration not stated) | 1 | 0.13
CCC1CCCCN1C(=O)Cn1c(C(=O)OC)cc2sc(Cl)cc21 (configuration not stated) | 1 | 0.5
COc1ccc(-c2cc(C(=O)Nc3ccc(C)cc3)no2)cc1OC | 0.99 | -0.2
CCn1c(SCCOc2ccc(C)c(C)c2)nc2ccccc21 | 1.2 | 6.6
Cc1nc2c(C(=O)NC3CCCC3)cnn2c(C)c1Cc1ccc(Cl)cc1 | 1 | 0.8
NC(=O)c1oc2ccccc2c1NC(=O)Cc1cccc2ccccc12 | 1 | 0.097
c1ccc(-c2nnc3ccc(N4CCCCCC4)nn23)cc1 | 1.2 | 2.2
C=C(C)C1Cc2c(C)nn(-c3cc(C)c4ccccc4n3)c2C1 (configuration not stated) | 0.98 | -0.24
O=C(O)c1ccc(N2C(=O)CC(Cc3ccc(Cl)cc3)C2=O)cc1 (configuration not stated) | 1.2 | 1.5
COc1cccc(-c2nn3c(-c4ccccc4)nnc3s2)c1 | 1 | 1.8
COc1ccc(-c2csc(N3CCN(c4ccccc4F)CC3)n2)cc1 | 1.2 | 3
Cc1ccc(-c2nnc(NCc3ccccc3)c3ccccc23)cc1S(=O)(=O)N1CCCCC1 | 0.89 | -2.7
